Screens from PubChem.
Ecoli rRNA inh: inhibitors of bacterial rRNA selective over humanized ribosomes. E. coli WT GFP vs humanized-ribosome RFP mutants, fluorescence, 24 h; stronger effect = lower value; DMSO median 0, no signal -100. GFP signal change (wild-type ribosome), % (no concentration beside the values). hit rate 1.6% among 350,000. AID 720706;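 active = significant combined selectivity score with lowered wild-type GFP, culture density cut under 30%, mutant RFP and density less affected; inactive = any of these conditions unmet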; also: one replicate is shown; some compounds called inactive have numbers as strong as hits
Ecoli rRNA inh OD600: further read-out of Ecoli rRNA inh, marked with its call; OD600 change, %; measured here: OD600 growth;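 optical density of the mix in the first replicate; 0 = DMSO median and -100 = no signal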
Ecoli rRNA inh RFP: recorded beside Ecoli rRNA inh, whose call it bears; RFP signal change, %; measured here: RFP humanized mutant strains;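 first replicate; 0 = DMSO median and -100 = no signal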
An asterisk follows results filed as active; & = joins results of further samples.

#1 O=C(C[C@H]1C=C[C@H](NC(=O)CCN2CCCCC2)[C@H](CO)O1)Nc1nccs1
#2 COC(=O)C[C@@H]1CC[C@H]2[C@@H](COC[C@H](O)CN2CCC(F)(F)F)O1
#3 CC(=O)N(C)C[C@H]1[C@@H](c2ccc(-c3ccc(F)cc3)cc2)[C@@H](CO)N1C(C)=O
#4 COc1ccc(CN2CC3(CCN(C(=O)C4CCC4)CC3)c3c(n(C)c4cc(OC)ccc34)[C@@H]2CO)cc1
#5 C[C@H]1CN([C@@H](C)CO)C(=O)c2cccc(NS(=O)(=O)c3cn(C)cn3)c2O[C@H]1CN(C)S(=O)(=O)c1cn(C)cn1
assay / entry | 1 | 2 | 3 | 4 | 5
Ecoli rRNA inh | 0 | 5 | 0 | 0 | -2
Ecoli rRNA inh OD600 | 12 | 13 | 1 | -15 | -1
Ecoli rRNA inh RFP | -3.2 | -0.7 | -3.9 | -1.7 | -4.3

#6 C[C@H](CO)N1C[C@H](C)[C@@H](CN(C)S(=O)(=O)c2ccc(-n3cccn3)cc2)OCc2cn(nn2)CCCC1=O
#7 CCS(=O)(=O)N1CC(=O)N2[C@H](CO)[C@@H](c3ccc(C#CC4CCCCC4)cc3)[C@H]2C1
#8 CC(C)NC(=O)Nc1ccc2c(c1)CC(=O)N([C@H](C)CO)C[C@H](C)[C@H](CN(C)Cc1ccccc1)O2
#9 Cc1noc(C)c1S(=O)(=O)Nc1cccc2c1O[C@@H](CN(C)S(=O)(=O)c1ccc(F)cc1)[C@@H](C)CN([C@H](C)CO)C2=O
#10 COc1cccc(C(c2nnnn2C2CCCC2)N2CCN(C/C=C/c3ccccc3)CC2)c1OC (stereo unspecified)
assay / entry | 6 | 7 | 8 | 9 | 10
Ecoli rRNA inh | 0&-1 | -2 | 3 | -1 | -43
Ecoli rRNA inh OD600 | 4&-1 | -31 | -2 | -7 | -76
Ecoli rRNA inh RFP | 3.7&1.8 | 7.7 | -1.5 | -0.4 | -7.5

#11 CC(=O)N(C)C[C@@H]1Oc2cc(-c3ccccc3C)ccc2S(=O)(=O)N([C@H](C)CO)C[C@H]1C
#12 COc1cccc(NC(=O)N(C)C[C@@H]2Oc3ncc(C#Cc4cccnc4)cc3C(=O)N([C@@H](C)CO)C[C@@H]2C)c1
#13 C[C@@H]1CN([C@@H](C)CO)C(=O)c2cc(/C=C/c3ccccc3)cnc2O[C@H]1CN(C)S(=O)(=O)c1ccccc1F
#14 Cc1ccccc1-c1ccc(C2[C@@H]3CN(C(=O)C4CCOCC4)C[C@H]2N3)cc1 (stereo partly specified)
#15 C[C@@H]1CN([C@@H](C)CO)C(=O)c2cccc(NC(=O)C3CCOCC3)c2O[C@@H]1CN(C)Cc1ccncc1
assay / entry | 11 | 12 | 13 | 14 | 15
Ecoli rRNA inh | -2 | -5 | 1 | 3&0 | 0
Ecoli rRNA inh OD600 | 5 | 3 | -3 | -4&-2 | 5
Ecoli rRNA inh RFP | -2.0 | 1.2 | 1.4 | -1.4&-4.0 | -0.9

#16 C[C@H]1CN(C)C(=O)c2cc(N)ccc2O[C@@H]1CN(C)C(=O)OC(C)(C)C
#17 CCN(C[C@H]1[C@H](c2ccccc2)[C@@H](CO)N1C(C)=O)C(=O)NC1CCCC1
#18 C[C@@H]1CN([C@@H](C)CO)C(=O)c2cc(NS(C)(=O)=O)ccc2O[C@@H](C)CCCCO[C@@H]1CN(C)Cc1ccc(C(F)(F)F)cc1
#19 COC(=O)c1cc2c(c3c4cc(OC)ccc4n(S(=O)(=O)c4ccc(OC)cc4)c13)C(=O)N(Cc1ccc(N(C)C)cc1)C2
#20 CCC(=O)N1C[C@@H](C)[C@@H](OC)CN(C)C(=O)c2ccc(NC(=O)COC)cc2OC[C@@H]1C
assay / entry | 16 | 17 | 18 | 19 | 20
Ecoli rRNA inh | 8 | 0 | -3 | 0 | 1
Ecoli rRNA inh OD600 | 6 | 12 | -7 | 7 | 4
Ecoli rRNA inh RFP | 0.3 | -1.2 | 3.0 | 13 | 0.7

#21 COc1ccc(NC(=O)Nc2ccc3c(c2)C(=O)N([C@H](C)CO)C[C@@H](C)[C@H](CN(C)S(=O)(=O)c2c(C)noc2C)OCCCC[C@@H](C)O3)cc1
#22 N#C[C@H]1[C@@H](c2ccc(C3=CCCC3)cc2)[C@H](CO)N1C(=O)c1cccc(F)c1
#23 C[C@H](CO)N1C[C@H](C)[C@@H](CN(C)C(=O)NC2CCCCC2)Oc2ccc(NS(=O)(=O)c3ccccc3)cc2CC1=O
#24 COc1ccc(NC(=O)N(C)C[C@H]2Oc3ccc(NS(=O)(=O)c4ccc(Cl)cc4)cc3C(=O)N([C@H](C)CO)C[C@@H]2C)cc1
#25 Cc1noc(C)c1NC(=O)Nc1ccc2c(c1)C(=O)N([C@@H](C)CO)C[C@@H](C)[C@H](CN(C)C(=O)c1ccccc1)OCCCC[C@H](C)O2
assay / entry | 21 | 22 | 23 | 24 | 25
Ecoli rRNA inh | 3 | 1 | 1 | 1 | 4
Ecoli rRNA inh OD600 | 1 | 1 | 0 | 8 | 2
Ecoli rRNA inh RFP | 0.7 | 1.7 | -4.7 | -2.6 | -1.5

#26 CC(C)(C)[S@@](=O)N1Cc2cc(C(=O)N[C@@H]3CCN(Cc4ccccc4)C3)nc(-c3cccc(-c4cccnc4)c3)c2[C@H]1CCO
#27 C[C@@H]1CN([C@@H](C)CO)S(=O)(=O)c2ccc(-c3cccnc3)cc2O[C@@H]1CN(C)CC1CCOCC1
#28 CC=Cc1ccc2n(c1=O)C[C@H]1[C@H](CO)[C@@H](C(=O)NCCc3ccncc3)N(Cc3cncnc3)[C@@H]21 (mixture of isomers)
#29 Cc1noc(C)c1S(=O)(=O)Nc1ccc2c(c1)C(=O)N([C@@H](C)CO)C[C@H](C)[C@H](CN(C)Cc1ccc(C(=O)O)cc1)O2
#30 COCC(=O)N(C)C[C@@H]1Oc2ncc(C#Cc3ccccc3)cc2C(=O)N([C@H](C)CO)C[C@H]1C
assay / entry | 26 | 27 | 28 | 29 | 30
Ecoli rRNA inh | -4 | 1 | -2 | 9 | 1
Ecoli rRNA inh OD600 | -7 | 12 | 6 | 4 | 2
Ecoli rRNA inh RFP | 1.5 | -2.9 | 0.4 | -0.5 | -1.7

#31 COCC(=O)Nc1ccc2c(c1)OC[C@@H](C)N(CC1CC1)C[C@@H](C)[C@H](OC)CN(C)C2=O
#32 C[C@H](CO)N1C[C@H](C)[C@H](CN(C)C(=O)c2ccccc2)OCCCC[C@H](C)Oc2ccc(NS(=O)(=O)c3cn(C)cn3)cc2C1=O
#33 Cc1ccc(S(=O)(=O)Nc2cccc3c2O[C@@H](CN(C)Cc2ccc(Cl)c(Cl)c2)[C@@H](C)CN([C@H](C)CO)C3=O)cc1
#34 COc1cccc(NC(=O)N(C)C[C@@H]2Oc3ncc(C4=CCCCC4)cc3C(=O)N([C@H](C)CO)C[C@H]2C)c1
#35 CCCC#Cc1cnc2c(c1)C(=O)N([C@H](C)CO)C[C@@H](C)[C@H](CN(C)C(=O)Cc1ccccc1)O2
assay / entry | 31 | 32 | 33 | 34 | 35
Ecoli rRNA inh | 4 | -1 | -1 | -6 | -6
Ecoli rRNA inh OD600 | 3 | 2 | 2 | -16 | -12
Ecoli rRNA inh RFP | 0.5 | -4.5 | 0.4 | -0.1 | -0.2

#36 COc1ccc(CN2CC3(CCN(C(=O)C4CC4)CC3)c3c(n(C)c4cc(OC)ccc34)[C@@H]2CO)cc1
#37 CCN1C(=O)c2cccc3c(S(=O)(=O)N(C)C)ccc1c23
#38 COCC(=O)Nc1ccc2c(c1)C(=O)N(C)C[C@H](OC)[C@H](C)CN(Cc1cc(F)ccc1F)[C@H](C)CO2
#39 CNC[C@H]1Oc2ccc(NC(=O)C3CCCCC3)cc2C(=O)N([C@H](C)CO)C[C@@H]1C
#40 O=C(C1CCCC1)N1C[C@@H]2N[C@H](C1)C2c1ccc(/C=C/c2ccccc2)cc1 (stereo partly specified)
assay / entry | 36 | 37 | 38 | 39 | 40
Ecoli rRNA inh | 4 | -11 | 1 | 5 | -57&-52
Ecoli rRNA inh OD600 | -6 | -11 | 1 | 4 | -82&-75
Ecoli rRNA inh RFP | -0.3 | 5.7 | -1.6 | -1.9 | -12&-12

#41 COc1ccccc1S(=O)(=O)N1CC[C@@H]2[C@H]1c1cc(-c3cccc(C#N)c3)ccc1N(C)[C@H]2CO
#42 N#C[C@H]1[C@@H](c2ccccc2C2=CCCCC2)[C@H](CO)N1C(=O)CN1CCOCC1
#43 C[C@@H]1CN([C@@H](C)CO)C(=O)c2cc(NC(=O)Nc3ccc4c(c3)OCO4)ccc2O[C@@H](C)CCCCO[C@@H]1CN(C)Cc1ccc(C(F)(F)F)cc1
#44 COc1ccc(NC(=O)Nc2ccc3c(c2)C(=O)N([C@H](C)CO)C[C@@H](C)[C@@H](CN(C)C(=O)Nc2cccc4ccccc24)O3)cc1
#45 CCNC(=O)C[C@H]1CC[C@@H]2[C@H](COc3ccc(NC(=O)Nc4c(C)noc4C)cc3C(=O)N2C)O1
assay / entry | 41 | 42 | 43 | 44 | 45
Ecoli rRNA inh | 8 | -5 | 2 | -4 | 5
Ecoli rRNA inh OD600 | -8 | -1 | 6 | -9 | 7
Ecoli rRNA inh RFP | 20 | -1.3 | -0.3 | -0.3 | -1.0

#46 Cc1cc(-c2cc(NC=O)c3ncc(-c4cccc(C(=O)NCCN(C)C)c4)n3c2)cc(C)c1O
#47 CCS(=O)(=O)Nc1ccc2c(c1)C(=O)N(C)[C@@H]1CC[C@@H](CC(=O)NCCOC)O[C@@H]1CO2
#48 CN(C)C(=O)[C@@H]1[C@@H](CO)[C@@H]2Cn3c(ccc(C4=CCCC4)c3=O)[C@H]1N2C(=O)c1ccccc1
#49 COCC(=O)N1C[C@@H](C)[C@H](OC)CN(C)C(=O)c2ccc(NC(=O)c3ccc(OC)cc3)cc2OC[C@H]1C
#50 CO[C@@H]1CN(C)C(=O)c2ccc(NC(=O)C3CCCC3)cc2OC[C@@H](C)N(CCC(F)(F)F)C[C@H]1C
assay / entry | 46 | 47 | 48 | 49 | 50
Ecoli rRNA inh | -14 | -1 | 1 | 1 | 0
Ecoli rRNA inh OD600 | -6 | 5 | -3 | -3 | -5
Ecoli rRNA inh RFP | 6.2 | -0.5 | 0.4 | -2.2 | -3.3

#51 CNC[C@@H]1OCCCC[C@@H](C)Oc2ccc(NC(=O)Cc3ccccc3)cc2C(=O)N([C@@H](C)CO)C[C@H]1C
#52 O=C(C[C@H]1CC[C@H]2[C@@H](COC[C@H](O)CN2S(=O)(=O)c2ccc(F)cc2)O1)NCc1ccc(Cl)c(Cl)c1
#53 C[C@H](CO)N1C[C@H](C)[C@H](CN(C)S(=O)(=O)c2ccc(Cl)cc2)Oc2c(NC(=O)c3nc4ccccc4s3)cccc2C1=O
#54 CC(C)NC(=O)N(C)C[C@H]1OCCCC[C@H](C)Oc2ccc(NS(=O)(=O)c3ccc(Cl)cc3)cc2C(=O)N([C@H](C)CO)C[C@H]1C
#55 Cc1cc(C)n2c(NCc3ccccc3)c(CCc3ccccc3)nc2n1
#56 CCCN1[C@@H]2c3cccc(=O)n3C[C@H]1[C@H](CO)[C@H]2C(=O)NC1Cc2ccccc2C1
assay / entry | 51 | 52 | 53 | 54 | 55 | 56
Ecoli rRNA inh | 7 | -12 | 2 | -3 | 6 | -2
Ecoli rRNA inh OD600 | 1 | -35 | 1 | -6 | 1 | 1
Ecoli rRNA inh RFP | -0.7 | 2.8 | 1.1 | -0.1 | 1.4 | -1.5

Some of the entries so far, with two lines to a compound:
Sequence of screens: Ecoli rRNA inh | Ecoli rRNA inh OD600 | Ecoli rRNA inh RFP
41) COc1ccccc1S(=O)(=O)N1CC[C@@H]2[C@H]1c1cc(-c3cccc(C#N)c3)ccc1N(C)[C@H]2CO
  8 | -8 | 20
42) N#C[C@H]1[C@@H](c2ccccc2C2=CCCCC2)[C@H](CO)N1C(=O)CN1CCOCC1
  -5 | -1 | -1.3
43) C[C@@H]1CN([C@@H](C)CO)C(=O)c2cc(NC(=O)Nc3ccc4c(c3)OCO4)ccc2O[C@@H](C)CCCCO[C@@H]1CN(C)Cc1ccc(C(F)(F)F)cc1
  2 | 6 | -0.3
44) COc1ccc(NC(=O)Nc2ccc3c(c2)C(=O)N([C@H](C)CO)C[C@@H](C)[C@@H](CN(C)C(=O)Nc2cccc4ccccc24)O3)cc1
  -4 | -9 | -0.3
45) CCNC(=O)C[C@H]1CC[C@@H]2[C@H](COc3ccc(NC(=O)Nc4c(C)noc4C)cc3C(=O)N2C)O1
  5 | 7 | -1.0
46) Cc1cc(-c2cc(NC=O)c3ncc(-c4cccc(C(=O)NCCN(C)C)c4)n3c2)cc(C)c1O
  -14 | -6 | 6.2
47) CCS(=O)(=O)Nc1ccc2c(c1)C(=O)N(C)[C@@H]1CC[C@@H](CC(=O)NCCOC)O[C@@H]1CO2
  -1 | 5 | -0.5
48) CN(C)C(=O)[C@@H]1[C@@H](CO)[C@@H]2Cn3c(ccc(C4=CCCC4)c3=O)[C@H]1N2C(=O)c1ccccc1
  1 | -3 | 0.4
49) COCC(=O)N1C[C@@H](C)[C@H](OC)CN(C)C(=O)c2ccc(NC(=O)c3ccc(OC)cc3)cc2OC[C@H]1C
  1 | -3 | -2.2
50) CO[C@@H]1CN(C)C(=O)c2ccc(NC(=O)C3CCCC3)cc2OC[C@@H](C)N(CCC(F)(F)F)C[C@H]1C
  0 | -5 | -3.3
51) CNC[C@@H]1OCCCC[C@@H](C)Oc2ccc(NC(=O)Cc3ccccc3)cc2C(=O)N([C@@H](C)CO)C[C@H]1C
  7 | 1 | -0.7
52) O=C(C[C@H]1CC[C@H]2[C@@H](COC[C@H](O)CN2S(=O)(=O)c2ccc(F)cc2)O1)NCc1ccc(Cl)c(Cl)c1
  -12 | -35 | 2.8
53) C[C@H](CO)N1C[C@H](C)[C@H](CN(C)S(=O)(=O)c2ccc(Cl)cc2)Oc2c(NC(=O)c3nc4ccccc4s3)cccc2C1=O
  2 | 1 | 1.1

Not all compounds are listed (hit frequency here may not be typical).
